High-throughput results: PubChem BioAssay, Fisher Drug Discovery Resource Center
NPYLR7 ag: mosquito NPYLR7 agonism; AID 1259423; 270,000 compounds, 0.15% hits; HEK293T NPYLR7/Galpha15, GCaMP6s calcium fluorescence; activation, % at 10 µM; in the data active = activation above about 40%;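 also: 0% = vehicle and 100% = reference agonist at the receptor; some compounds past the cut are filed as inactive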
NPYLR7 ag max-min: further read-out of NPYLR7 ag, marked with its call; activation, %; measured here: Max-Min RFU normalised activation; some inactives read as strong as hits;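 span of the calcium signal over five minutes; 0% = vehicle and 100% = native peptide agonist; compound fluorescence can raise it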
An asterisk follows results filed as active; & = joins results of further samples. An excerpt, so the mix of outcomes need not match the whole.

SMILES | NPYLR7 ag | NPYLR7 ag max-min
COCCn1c(=O)c2c(nc3n2CC(C)CN3c2cc(Cl)ccc2C)n(C)c1=O (stereo unspecified) | 0 | -2
O=c1oc2ccccc2c(Oc2ccccc2)c1[N+](=O)[O-] | 2 | 1
COc1ccc(CN2CCC2(C)C(=O)Nc2ccc3c(c2)OCO3)c2ccccc12 (stereo unspecified) | 5 | 1
O=c1c(N=Nc2ccc(Cl)cc2Cl)c(-c2ccccc2)[nH]n1-c1ccccc1 | -3 | -1
Brc1csc(CNCCc2ncn[nH]2)c1 | 3 | 7
FC(F)(F)c1nnc2ccc(Cl)nn12 | 1 | 5
Cc1cccn2c(=O)cc(CN(C)C(C)c3cccc(NC(=O)c4ccccc4)c3)nc12 (stereo unspecified) | 1 | -1
Cc1cc(Cl)c2oc(C(=O)NCc3ccncc3)c(C)c2c1 | -1 | -4
O=C(NC1CCCCC1)c1cc(C2CC2)nn1-c1ccccc1 | 5 | 3
Cc1cc(C)nc(NS(=O)(=O)c2ccc(N=Cc3cc(Br)ccc3O)cc2)n1 | 5 | 4
CC(Cc1ccncc1)NC(=O)C(C)(C)NC(=O)c1cccs1 (stereo unspecified) | -4 | -7
CCOC(=O)c1c(NC(=O)c2ccc(Cl)cc2)sc(C(=O)Nc2ccc3c(c2)OCO3)c1C | -6 | -6
Cc1ccoc1C(=O)N(C)Cc1cc(-c2cccs2)n[nH]1 | 0 | 13
N#Cc1ccsc1NC(=O)CN1CCCC2(CCc3ccccc32)C1 (stereo unspecified) | 8 | 10
Cc1cc(CNC(=O)c2ccccc2N2CCOCC2)c2[nH]c(C)c(C)c2c1 | 5 | -1
c1ccc(OCc2nn3c(Cn4cnc5ccccc54)nnc3s2)cc1 | 14 | 7
COc1cccc(-c2csc(-n3nc(C)cc3NC(=O)CC(C)C)n2)c1 | -3 | -6
Cc1ccc2c(CC(=O)NC(C)C3CC4CCC3C4)coc2c1 (stereo unspecified) | 0 | -1
OCCn1c(-c2cccc(-n3cccn3)c2)nc2ccccc21 | 12 | 12
Cc1nn(C)c(Cl)c1/C=C/C(=O)Nc1cnccc1Oc1ccccc1 | 7 | 3

In the list so far, two contain bromine:
SMILES | NPYLR7 ag | NPYLR7 ag max-min
Brc1csc(CNCCc2ncn[nH]2)c1 | 3 | 7
Cc1cc(C)nc(NS(=O)(=O)c2ccc(N=Cc3cc(Br)ccc3O)cc2)n1 | 5 | 4

Next part:
SMILES | NPYLR7 ag | NPYLR7 ag max-min
Cc1ccccc1-c1ccc(-n2cncc2C(=O)NC2CCC[C@H]2OCc2ccccc2)cc1 (stereo partly specified) | 5 | 2
COc1cc(NC(=O)CCC2CCCN(C(=O)c3cccc(N(C)C)c3)C2)cc(OC)c1 (stereo unspecified) | 7 | 3
CCCCN(CC(=O)N(Cc1ccccc1)Cc1cccn1Cc1ccc(F)cc1)C(=O)c1ccc(Cl)cc1 | -6 | 3
COc1ccccc1CN1CCC(=O)N(Cc2ccc(F)cc2)C(C(C)C)C1 (stereo unspecified) | 7 | 5
CC1(C)OCC(CNC(=O)[C@H]2c3ccccc3C(=O)N(CCc3c[nH]c4ccccc34)[C@H]2c2ccccc2)O1 (stereo partly specified) | -13 | -18
O=c1ccc(-c2cccs2)nn1CCCNS(=O)(=O)c1ccccc1C(F)(F)F | 0 | -2
Cc1ccc(C(C)C)c(OCC(=O)NNC(=O)CCCCCN2C(=O)c3ccccc3C2=O)c1 | 1 | -6
Nc1nc(SCc2ccc([N+](=O)[O-])cc2)[nH]c(=O)c1NC(=O)c1ccccc1 | -7 | -10
Cc1ccc(C(=O)CN(Cc2ccccc2)C2=NCCS2)cc1 | 4 | -1
CCCCCC1CCC(c2ccc(-c3nc(-c4ccncc4)no3)cc2)CC1 (stereo unspecified) | -4 | -7
COc1ccc(/C=C2\C(=O)N(c3ccc(Cl)c(C(=O)O)c3)N=C2C)cc1OC | -6 | -15
Cc1ccc2nc(COC(=O)CCn3c(C)csc3=O)cc(=O)n2c1 | 5 | 3
CCCCOc1ccc(C(=O)N2CCN(c3ccc(-n4nc(C)cc4C)nn3)CC2)cc1 | -5 | -8
CCCCCCCC(=O)NN=Cc1c[nH]c2ccccc12 | 6 | -1
COC(=O)C(c1ccc(OC)cc1)C1C=CC(NC(=O)c2c(C)cc(C)cc2C)C1 (stereo unspecified) | 6 | 7
O=C(Nc1ncc([N+](=O)[O-])s1)c1ccc(=O)n(Cc2ccccc2Cl)c1 | 16 | 8
Cc1nc(C)c(C(=O)NCCCn2nc(-c3ccc(F)cc3)ccc2=O)s1 | -3 | -4
CN(C)CCCN1C(=O)C(O)=C(C(=O)c2cccs2)C1c1ccco1 (stereo unspecified) | 14&6 | 8&4
CC(C)Cc1nc(N2CCCN(C(=O)c3ccc(Cl)cc3)CC2)c2c(-c3cccc(Oc4ccccc4)c3)noc2n1 | 15 | 3
CN(C)C(=O)CNC(=O)Nc1ccc(F)c(NC(=O)C2CCCCC2)c1 | -4 | -7
CC(=O)N1CCC(NC(=O)CN(Cc2ccc(Cl)cc2)c2cccc(C#N)c2)CC1 | 5 | 1
C=CCNCC(=O)N(Cc1ccc(F)cc1)Cc1sccc1C | -8 | 1
CCc1cc(OS(=O)(=O)c2ccc(NS(C)(=O)=O)cc2F)ccc1Cl | 19 | 16
CCCCC(=O)Nc1ccc(C)cc1NC(=O)c1ccncc1F | 5 | -8
Cc1cc(C)c[n+](C2=C(c3c(C)[nH]n(-c4ccc(Cl)cc4)c3=O)C(=O)N(CC3CCCO3)C2=O)c1 (stereo unspecified) | -6 | 1
C=CCOc1ccc(C(=O)N(C)Cc2ccccc2O)cc1 | 14 | 10
O=C(/C=C/c1ccc(Cl)cc1Cl)n1cccn1 | -10 | -15
Cc1cccc(C(=O)N2CCN(c3cccc(C(F)(F)F)c3)C(=O)C2C)c1 (stereo unspecified) | -3 | 1
O=C(NNC(=O)c1ccc(=O)n(Cc2ccccc2)c1)c1cccc(C(F)(F)F)c1 | -8 | -15
CCC(C)N(Cc1ccc(OS(=O)(=O)c2ccc(OC)cc2)cc1)C(=O)C(C)C (stereo unspecified) | 21 | 25
COc1ccc(-n2ncc3c2CCN(C(=O)CC2NC(=O)NC2=O)C3)cc1 (stereo unspecified) | 0 | 30
COc1ccc(CN(C(=O)OC(C)(C)C)C2CCC(C(=O)N3CCOC(COc4cccc(C(F)(F)F)c4)C3)CC2)cc1C (stereo unspecified) | 3 | 0
CCn1c(C2CCNCC2)nn(Cc2csc(-c3ccccc3)n2)c1=O | 15 | 7
c1ccc(CSc2ccc(-c3ccc4c(c3)OCO4)nn2)cc1 | -3 | -3
COCc1cc(N2CCN(C/C=C/c3ccccc3)CC2)nc(SCc2cccc(C(=O)NCc3ccccn3)c2)n1 | 14 | 12
COCc1cc(C)nc(NN=Cc2ccc(-c3ccc(C(=O)O)cc3)o2)c1C#N | -1 | -6
N#Cc1c2c(c(-n3ccnc3)n3c1nc1ccccc13)CCCC2 | 0 | -2
COCCn1c(SCc2ccc(-c3csnn3)cc2)nnc1-c1cc(-c2ccccc2)nc2ccccc12 | -4 | -7
Cc1c(NC(=O)c2ncccc2O)cccc1C(=O)NC(C)(C)C | 35 | 28
O=[N+]([O-])c1cc(NS(=O)(=O)c2ccc(Cl)c([N+](=O)[O-])c2)c(F)cc1F | 0 | 24

6 structures from above, arranged by molecular weight, high to low:
SMILES | NPYLR7 ag | NPYLR7 ag max-min
COc1ccc(CN(C(=O)OC(C)(C)C)C2CCC(C(=O)N3CCOC(COc4cccc(C(F)(F)F)c4)C3)CC2)cc1C (stereo unspecified) | 3 | 0
COc1cc(NC(=O)CCC2CCCN(C(=O)c3cccc(N(C)C)c3)C2)cc(OC)c1 (stereo unspecified) | 7 | 3
Cc1ccc(C(=O)CN(Cc2ccccc2)C2=NCCS2)cc1 | 4 | -1
c1ccc(CSc2ccc(-c3ccc4c(c3)OCO4)nn2)cc1 | -3 | -3
N#Cc1c2c(c(-n3ccnc3)n3c1nc1ccccc13)CCCC2 | 0 | -2
Brc1csc(CNCCc2ncn[nH]2)c1 | 3 | 7

Five entries from above, comma-delimited:
structure,NPYLR7 ag,NPYLR7 ag max-min
O=C(Nc1ncc([N+](=O)[O-])s1)c1ccc(=O)n(Cc2ccccc2Cl)c1,16,8
Cc1nc(C)c(C(=O)NCCCn2nc(-c3ccc(F)cc3)ccc2=O)s1,-3,-4
CN(C)CCCN1C(=O)C(O)=C(C(=O)c2cccs2)C1c1ccco1 (stereo unspecified),14&6,8&4
CC(C)Cc1nc(N2CCCN(C(=O)c3ccc(Cl)cc3)CC2)c2c(-c3cccc(Oc4ccccc4)c3)noc2n1,15,3
CN(C)C(=O)CNC(=O)Nc1ccc(F)c(NC(=O)C2CCCCC2)c1,-4,-7

Next entries follow.
SMILES | NPYLR7 ag | NPYLR7 ag max-min
O=C(c1cc2n(n1)CCN(Cc1ccc(Cl)c(Cl)c1)C2=O)N1CCN(C/C=C/c2ccccc2)CC1 | 2 | 1
COc1ccccc1NC(=O)C1C(C(=O)O)C2C=CC1C21CC1 (stereo unspecified) | -2 | -4
CN1CCC(N2CCC(CN(Cc3ccncc3)C(=O)C3=CCCCC3)CC2)CC1 | 4 | 1
Cc1ccc2oc(-c3cccc(NC(=O)c4cc([N+](=O)[O-])ccc4Cl)c3)nc2c1 | -5 | -12
Cc1cnccc1N1CCCN(C(=O)c2occc2C)CC1 | 1 | -1
CC(NC(=O)c1[nH]c2ccc(F)cc2c1Cl)c1ccc(F)cc1 (stereo unspecified) | 9 | 8
COc1ccc(CCN(Cc2ccc(C)o2)C(=O)CN(CCN2CCCC2)C(=O)NC(C)(C)C)cc1OC | -9 | -17
CN(CCC(O)c1ccccc1)c1cc(N2CCOCC2)ncn1 (stereo unspecified) | -2 | -1
O=C(NCC1(c2cccc(F)c2)CCOCC1)c1cn2c(n1)CNCC2 | 5 | 1
COCCN(Cc1csc(COc2cccc(C)c2C)n1)C(=O)c1ccccc1OC | 14 | 14
NC(=O)CNCc1ccc(Br)cc1 | 1 | -4
COc1ccc(OC)c(NC(=S)NCc2ccc3c(c2)cc(C)n3C)c1 | 7 | 12
COc1cc(N2C[C@H]3OC(=O)N(Cc4ccc(OC)c(OC)c4)[C@H]3C2)ncn1 | 3 | -1
CCOC(=O)C1(CCOc2ccccc2)CCN(Cc2cccnc2)CC1 | 2 | 1
Cc1noc(-c2ccncc2)c1C(=O)NCc1cccc(F)c1F | 4 | 7
CCNC(=O)N1CCOC(CN(CC(C)C)C(=O)c2ccccc2F)C1 (stereo unspecified) | 5 | 1
Cc1nnc(C)c2c(C)n(-c3ccccc3N)c(C)c12 | 2 | 1
COc1ccc(-c2cc3c(=O)n(CC(=O)Nc4ccc(C)c(F)c4)ccn3n2)cc1OC | 9 | 5
CCOC(=O)Cn1c(=O)c2c(nc3n2CC(C)CN3Cc2ccccc2)n(C)c1=O (stereo unspecified) | 6 | 5
CC(C)(C)c1ccc(S(N)(=O)=O)s1 | 10 | 855
OCc1ccc(CN2CCCC(c3ccccc3)C2)o1 (stereo unspecified) | 2 | 0
CO[C@H]1C(=O)N(Cc2ccccc2)C2(CCN(C(=O)C3CCCC3)CC2)[C@@H]1CO | 12 | 15
Cc1cc(CN(C)C(=O)NCC(C)N2CCc3ccccc32)no1 (stereo unspecified) | 6 | 3
O=C1C2C3C=CC(C3)C2C(=O)N1c1cccc(-c2nc3ccccc3o2)c1 (stereo unspecified) | 4 | 14
Cc1cccc(Nc2nnc(C)c(=O)[nH]2)c1 | 0 | -3
COc1ccc(C(=O)N2CCCC(C(=O)NC3CCCC[C@H]3NC(=O)c3ccccc3C)C2)cc1 (stereo partly specified) | 23 | 21
COc1cc(C=C(C#N)S(=O)(=O)c2cc(Cl)ccc2Cl)cc(Br)c1O | 66* | 58*
CCC(C)c1ccc(OC2OC(COC(C)=O)C(OC(C)=O)C(OC(C)=O)C2NC(C)=O)cc1 (stereo unspecified) | 10 | 13
CN(C)CC(C)(C)Cn1cnc(-c2ccccc2)c1-c1cnn2cccnc12 | -3 | -12
CCN(CC)C(=O)Nc1ccccc1COc1ccc(CC#N)cc1 | 5 | 2
O=C(CCOc1ccc(Cl)cc1)N1CCOC(COCc2c(Cl)cccc2Cl)C1 (stereo unspecified) | 9 | 3
COc1cccc(CCN2CCC(C(=O)NC(c3ccc(Cl)cc3)c3ncccc3C)CC2)c1 (stereo unspecified) | -14 | -16
CCOc1ccc(S(=O)(=O)n2nc(C)c(S(=O)(=O)N3CCCC3)c2C)cc1 | 1 | -2
CC(=O)N(c1nc(C=CC(=O)c2ccc3c(c2)OCO3)cs1)c1c(C)cccc1C | 4 | 10
COc1ccc(/C=N\n2c(=O)c(C(C)(C)C)nn3cnnc23)cc1OC | 4 | 1
NCCc1nc(NCCN2CCc3ccccc32)c2ccccc2n1 | -7 | -11
COCC1CCCN(Cc2cn[nH]c2-c2ccc(OC)c(F)c2)C1 (stereo unspecified) | 9&1 | 3&-3
Oc1c(C(c2ccccn2)N2CCN(c3ccccn3)CC2)cc(Cl)c2cccnc12 (stereo unspecified) | 3 | 14
O=C(O)CCc1nnc(SCC(=O)Nc2cc(Cl)ccc2Cl)[nH]c1=O | 11 | 5
CNC(=O)NC(=O)CSc1ncnc2scc(-c3ccccc3)c12 | -2 | -6

Complete entries as entered above. Values in the order: NPYLR7 ag	NPYLR7 ag max-min
Record of CC(C)Cc1nc(N2CCCN(C(=O)c3ccc(Cl)cc3)CC2)c2c(-c3cccc(Oc4ccccc4)c3)noc2n1 : 15	3
Record of CC(C)(C)c1ccc(S(N)(=O)=O)s1 : 10	855

(list continues)
SMILES | NPYLR7 ag | NPYLR7 ag max-min
CCc1nc(NC2CCCCC2)c(C#N)c2c1CCCC2 | 3 | -1
COc1ccccc1C(C)NC(=O)c1ccc(S(C)(=O)=O)cc1 (stereo unspecified) | 1 | 1
COc1ccc(-c2nc3ncc4c(=O)n(CCN5CCOCC5)ccc4n3n2)cc1 | -1 | 6
COc1cccc(OCc2cc(C(=O)N3CCCCC3c3cccnc3)n[nH]2)c1 (stereo unspecified) | 12 | 4
COc1ccc(NC(=O)c2ccc(CSc3nnc(-c4ccccc4Cl)n3-c3cccc(Cl)c3)cc2)cc1 | 0 | 0
COc1ccc(CN(C)C(=O)NCC2Cc3ccccc3O2)cc1 (stereo unspecified) | 9 | 5
CCOc1ncnc2c1CNCC2 | 6 | 6
Nc1cc(Cl)ccc1N1CCOCC1 | -3 | -4
